Source: PubChem (National Center for Advancing Translational Sciences (NCATS))
Cruzain inh Det = qHTS Assay for Promiscuous and Specific Inhibitors of Cruzain (with detergent) | Cruzipain (Trypanosoma cruzi), P25779 | purified cruzain, Z-FR-AMC fluorescence, 0.01% Triton | Potency, µM, inactives show max response, negative = inhibition, usual class: inhibitors | actives 0.43% (n = 200,000) | AID 1478, 2009; active = well fitted curve in the direction sought with a large enough effect; inconclusive = small, poorly fitted or top-dose-only effect, or another doubt; inactive = no such curve, though single readings can be large; an effect the other way counts as inactive or inconclusive;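 also: plate controls were neutral wells for no effect and buffer without enzyme for full effect; nearly all actives have a fitted effect of over 40% in size; top concentration of the series not given in the record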
Target sequence (P25779 123-467 limits assumed): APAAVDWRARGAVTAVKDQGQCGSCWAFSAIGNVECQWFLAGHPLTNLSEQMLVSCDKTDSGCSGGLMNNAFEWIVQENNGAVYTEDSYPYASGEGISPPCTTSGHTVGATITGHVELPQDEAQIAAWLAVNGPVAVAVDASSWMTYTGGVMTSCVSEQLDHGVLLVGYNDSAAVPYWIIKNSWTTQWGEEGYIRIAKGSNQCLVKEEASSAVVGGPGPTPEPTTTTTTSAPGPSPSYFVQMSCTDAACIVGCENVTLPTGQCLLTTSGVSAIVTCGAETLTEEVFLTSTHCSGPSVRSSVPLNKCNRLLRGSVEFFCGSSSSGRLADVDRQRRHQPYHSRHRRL
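In this qHTS format, compounds are incubated with 1.5 nM cruzain for 15 min at room temperature before 2 uM Z-FR-AMC is added. Release of AMC is followed at 360/450 nm, and progress is taken as the 60 s fluorescence difference.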
StopGo reporter = High Throughput Screening for Foot and Mouth Disease Virus Antivirals; human cells with a luciferase reporter of 2A StopGo recoding; control for the full effect not named in the record; actives 1.2% (n = 410,000); Potency, µM (titrated, usually from 57.9 µM), inactives show top-dose signal change, negative = less light; AID 1159524, 2015; active = well fitted falling curve with a large enough effect; inconclusive = small, poorly fitted or top-dose-only effect; inactive = no such curve, though single readings can be large or run the other way; tested in HEK293T cells; also: % is scaled to controls: 0 for no effect and ±100 for the full control effect; nearly all actives have a fitted effect of over 45% in size; luciferase light after 4 h
LASV entry inh = qHTS for Inhibitors of binding or entry into cells for Lassa Virus; Potency, µM (doses to about 37.9 µM), for inactives: at the highest dose activity change, negative = inhibition, usual class: inhibitors; Lassa virus pseudotype entry inhibition, cell reporter; control for the full effect not named in the record; actives 1.2% (n = 300,000); active means well fitted inhibition curve with a large enough effect; inconclusive means small, poorly fitted or top-dose-only effect, or effect the other way; inactive means flat fitted curve, though single readings scatter; tested in HEK293 cells; also: % is scaled to controls: 0 for no effect and ±100 for the full control effect; nearly all actives have a fitted effect of over 50% in size; luciferase read-out
Cruzain noTriton = qHTS Assay for Promiscuous and Specific Inhibitors of Cruzain (without detergent). Cruzipain (Trypanosoma cruzi), P25779. purified cruzain, Z-FR-AMC fluorescence, no detergent. Potency, µM, without a hit: max response, negative = inhibition, most hits filed as inhibitors. actives 2.3% (n = 200,000); active = well fitted curve in the direction sought with a large enough effect; inconclusive = small, poorly fitted or top-dose-only effect, or another doubt; inactive = no such curve, though single readings can be large; an effect the other way counts as inactive or inconclusive;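 also: plate controls were enzyme without inhibitor for no effect and buffer without enzyme for full effect; nearly all actives have a fitted effect of over 40% in size; top concentration of the series not given in the record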
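Detergent-free condition (0.00005% Triton X-100) in acetate buffer pH 5.5 with DTT. 1.5 nM enzyme and compound were pre-mixed 15 min, then 2 uM Z-FR-AMC substrate added; reaction progress from fluorescence change between first and third reads (60 s).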
RE007 growth inh = qHTS Assay for Inhibitors of the HIV-1 protein Vpr | S. pombe RE007 Vpr strain, BacTiter-Glo ATP luminescence, 24 h; control for the full effect not named in the record | Potency, µM (titrated, usually from 92.2 µM), for the others: at the highest dose activity change, negative = less growth | actives 0.21% (n = 360,000); active = well fitted falling curve with a large enough effect; inconclusive = small, poorly fitted or top-dose-only effect; inactive = no such curve, though single readings can be large or run the other way;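 also: % is scaled to controls: 0 for no effect and ±100 for the full control effect; nearly all actives have a fitted effect of over 50% in size; the assay follows cell death caused by Vpr and the record does not say whether a fall means rescue or toxicity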
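Fission yeast strain RE007, carrying one chromosomally integrated HIV-1 vpr copy, was seeded at OD 0.01 in PMG+AL medium with 23 nL pinned compound. After 24 h at 30 °C and 99% humidity, viability was read by BacTiter-Glo luminescence.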
NS1 function inh = qHTS Assay for Inhibitors of Influenza NS1 Protein Function | S. cerevisiae slowed by influenza A NS1, growth recovery by OD600 | Potency, µM (titrated, usually from 46.1 µM), for the others: at the highest dose activity, positive = more growth | actives 0.4% (n = 270,000); also: actives are rising curves; nearly all actives have a fitted effect of over 50% in size
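A cell-based growth assay was used: compounds that relieve NS1-induced slow growth of budding yeast raise OD600. Assay medium was yeast nitrogen base with ammonium sulphate and -URA supplement, pH 6.0, with 2% galactose.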
SARS PLP yeast = qHTS of Yeast-based Assay for SARS-CoV PLP | S. cerevisiae expressing SARS-CoV PLpro, growth rescue; control for the full effect not named in the record | Potency, µM (doses to about 32.9 µM), for inactives: top-dose activity, positive = growth rescue | actives 0.19% (n = 330,000); also: 0% is about no effect; nearly all actives have a fitted effect of over 55% in size; growth read by luminescence after 48 h
Marburg entry inh = qHTS for inhibitors of binding or entry into cells for Marburg Virus; Marburg virus pseudotyped entry inhibition, cell reporter; control for the full effect not named in the record; about a third of the inactives were read at about 46 µM; Potency, µM (series often up to 37.8 µM), for the others: at the top dose activity change, negative = inhibition, usual class: inhibitors; actives 1.8% (n = 300,000); AID 540276, 2011; active = well fitted inhibition curve with a large enough effect; inconclusive = small, poorly fitted or top-dose-only effect, or effect the other way; inactive = flat fitted curve, though single readings scatter; tested in HEK293 cells; about a fifth of its hits are not listed in these tables; also: % is scaled to controls: 0 for no effect and ±100 for the full control effect; luciferase read-out
* marks the source's active call; other numbers are inactive results; ? = inconclusive; . = not tested or not shown; & = joins results of further samples; [ ] = dose if it differs, or a comment. Unless noted, calls follow the shape of the dose curve; as a rule, active means well fitted rising curve with a large enough effect; inconclusive means small, poorly fitted or top-dose-only effect; inactive means no such curve, though single readings can be large or run the other way. Potency is read from the fitted curve at half-maximal effect.

SMILES	Cruzain inh Det	StopGo reporter	LASV entry inh	Cruzain noTriton	RE007 growth inh	NS1 function inh	SARS PLP yeast	Marburg entry inh
Cc1ccc(NC(=O)[C@@H]2CCCN2S(=O)(=O)c2ccc(Cl)cc2)cc1	.	-3%	?	.	33%	.	-6%	-28%
Cc1cc(Br)ccc1N=C1C(=O)Nc2ccccc21	.	-14%	.	.	-8%	4%	2%	.
O=S1(=O)[C@H]2CC3O[C@]2(C[C@@H]3c2ccc(F)cc2)CN1Cc1ccc(Cl)cc1	.	-26%	.	.	13%	-5%	-3%	.
O=C(c1ccncc1)N1CCCC(N2CCN(c3cccc(C(F)(F)F)c3)CC2)C1 (stereo not drawn)	.	-3%	.	.	-19%	-11%	7%	.
COc1cc(OC)c(NS(=O)(=O)c2cc(-c3cnc(C)o3)ccc2OC)cc1Cl	-7.2%	69%[activator]	-15%[46.1 µM]	?	.	.	.	.
C#CC1(O)C=CC2C3CCC4=CC(=O)CCC4C3CCC21CC (stereo not drawn)	.	-30%	.	.	-3%	-8%	0%	.
COc1ccc(OCC(=O)N/N=C2\CCCc3ccccc32)cc1	-4.9%	25%	-1%	-3%	-16%	-8%	-14%	-14%
CC(C)c1nnc(NC(=O)c2ccc3c(c2)OCO3)s1	.	-23%	.	.	-2%	-3%	0%	.
O=C(O)CCC(=O)NC(c1ccccc1)c1ccccc1	.	-5%	10%	.	17%	3%	0%	?
C#CCSc1nc(-c2ccccc2)cc(C(F)(F)F)c1C#N	-7.1%	-14%	-17%	-9%	-3%	-9%	-4%	7%
CCCc1nc2ccccc2c(=O)n1/N=C/c1ccc(O)c(O)c1	-14%	?	?	-8%	27%	-22%	10%	-11%
O=C(CCc1ccc(S(=O)(=O)N2CCOCC2)cc1)NCCCN1CCCC1=O	3.1%	-1%	5%	1%	15%	-3%	4%	?
CCOc1ccc(NC(=O)C2CCC(N3C(=O)C4CC=CCC4C3=O)CC2)cc1 (stereo not drawn)	2.3%	-21%	-13%	8%	1%	-12%	-3%	0%
Cn1c(-c2ccc3c(c2)OCO3)cnc1NCc1cccc(O)c1	.	22%	-17%	.	-11%	4%	0%	?
CCCNC(=O)COC(=O)/C=C/c1ccc2c(c1)OCO2	-6.4%	-9%	-2%	0%	17%	-17%	20%	0%
CN(C)CCNC(=S)Nc1ccc(-c2nc3ccccc3[nH]2)cc1	.	36%[activator]	8%	.	-10%	.	-5%	?
CCN(CC)S(=O)(=O)c1cccc(NC(=O)COC(=O)CNC(=O)c2cccc(F)c2)c1	.	-11%	.	.	4%	?	2%	.
CCOc1ccc(CCNC(=O)c2ccc(C)c(NC3=NC4CS(=O)(=O)CC4S3)c2)cc1 (stereo not drawn)	.	-8%	?	.	6%	1%	-6%	6%[46.1 µM]
COC(=O)c1sc(S(=O)(=O)N2CCC(C(N)=O)CC2)c(C(=O)OC)c1C	5.2%	36%[activator]	14%	-3%	3%	18%	4%	14%
COc1cc2c(cc1NC(=O)c1ccccc1F)CCCC2	-4.3%	62%[activator]	?	-22%	0%	-33%	-41%	?
O=C(O)C1(Cc2nc3ccccc3[nH]2)CCCC1	.	-1%	3%[46.1 µM]	.	-13%	6%	0%	-26%[46.1 µM]
NC(=O)c1c(NC(=O)c2ccccc2F)sc2c1CCCC2	.	42%[activator]	?	.	-9%	6%	-7%	?
Cc1cc2c(c(Sc3ccccc3)n1)C(=O)OC2	4.3%	5%	-3%	-2%	-8%[3.69 µM]	-50%	0%	0%
O=C(NCc1ccco1)c1c[nH]c2ccc(S(=O)(=O)N3CCOCC3)cc2c1=O	-0.1%	-10%	?	-8%	6%	0%	-3%	-24%
CCS(=O)(=O)c1nc(S(=O)(=O)c2ccc(C)cc2)c(N2CCN(C)CC2)s1	.	4%	.	.	-3%	-11%	-4%	.
Cc1ccc(NC(=O)COC(=O)c2ccc(CN3CCCC3=O)cc2)c(Cl)c1	.	-3%	15%	.	0%	.	0%	22%
CCOC(=O)CSc1ccc2nnc(CCNS(=O)(=O)c3ccccc3)n2n1	-2.5%	-2%&-7%	-7%	-6%	2%	.	1%	-1%&-1%
CSc1nnc(NC(=O)CCc2ccccc2)s1	3.3%	39%[activator]	-1%	?	13%	1%	5%	?
CS(=O)(=O)N1CCN(c2ccc([N+](=O)[O-])c(N3CCOCC3)c2)CC1	-0.2%	-4%	18%	-10%	21%	14%	3%	-23%
COc1ccc(OCC(O)Cn2c(Nc3ccccc3)nc3c2c(=O)n(C)c(=O)n3C)cc1 (stereo not drawn)	2.9%	?	?	13%	4%	9%	2%	?
CS(=O)(=O)N(Cc1ccc(Cl)cc1)c1ccc(C(=O)N/N=C/c2cc3ccccc3nc2Cl)cc1	-5.4%	-16%	-12%	?	-7%	13%	-4%	?
O=C(Nc1csc([N+](=O)[O-])c1)Nc1c(Cl)cccc1Cl	.	-16%	.	.	-12%	-4%	-6%	.
CCOC(=O)c1ccc(NC(=O)N2CCCCCC2)cc1	.	16%	?	.	-12%	-13%	-3%	-10%
COc1ccccc1NC(=O)c1ccccc1N(Cc1ccccc1)S(C)(=O)=O	.	-2%	.	.	2%	2%	-5%	.
CCCN(C(=O)c1cn(C)c(=O)c2ccccc12)c1ccccc1C	-2.0%	-5%&-11%	-5%	1%	10%	5%	2%	?
Cc1ccc(CCNC(=O)C(CC(C)C)NS(=O)(=O)c2ccc3c(c2)oc(=O)n3C)cc1 (stereo not drawn)	-0.4%	-5%	?	-5%	.	.	.	-2%[46.1 µM]
CC1=CC(=O)C=CC1(C)C(Cl)Cl (stereo not drawn)	3.2%	-16%	17%	-4%	-3%	14%	0%	1%
CC1CCC2(CC1)NC(=O)N(CC(=O)NC1CCCCC1C)C2=O (stereo not drawn)	.	-20%	-15%	.	1%	.	1%	?
COc1cc(C(=O)Nc2nc(OC)c(-c3ccccc3)c(OC)n2)cc(OC)c1OC	-6.4%	.	?	?	-1%	6%	2%	?
COc1ccc(C)c(-n2c(N)cc(=O)n(Cc3ccccc3)c2=O)c1	.	3%	.	.	10%	1%	0%	.
O=C(NCc1ccco1)C1CCCCN1S(=O)(=O)c1ccc(F)cc1 (stereo not drawn)	1.6%	-8%	2%	-1%	-6%	3%	3%	6%
O=C(NC1CONC1=O)OCC(Cl)(Cl)Cl (stereo not drawn)	0.5%	-4%	4%	2%	-2%	5%	4%	-34%
C=CCn1c(SCC(=O)Nc2cc(C)on2)nc2sc(C)c(C)c2c1=O	6.2%	-9%	.	-11%	.	4%	4%	-4%
C[C@@H](O)C1NC(=O)[C@H](CCCCN)NC(=O)c2cc([N+](=O)[O-])cc(I)c2NCCC[C@@H](C(N)=O)NC1=O (stereo partly drawn)	-15%	-2%	8%	-2%	0%	-20%	0%	-11%
Cc1ccccc1Cn1c(CN2CCC(C(=O)NCc3cccnc3)CC2)cc2ccccc21	-0.8%	?	25%[46.1 µM]	15%	.	.	.	.
Cc1ccc(C(=O)/C=C/Nc2ccccc2C(N)=O)o1	-2.7%	.	0%	-8%	-4%	-20%	.	6%
CCOC(=O)c1nc(C)sc1-c1ccnn1S(=O)(=O)c1ccccc1C(F)(F)F	.	8%	-11%	.	17%	2%	-2%	-12%[46.1 µM]
CCC(=O)NC(=S)Nc1ccc(NC(=O)c2ccc(Br)o2)cc1	.	35%[activator]	.	.	-27%	-6%	4%	.
NNc1ccc(Cc2ccc(Cl)cc2Cl)nn1	.	-3%	-29%[46.1 µM]	.	-21%	.	2%	?
C#Cc1ccc([C@H]2C=C(C(=O)NCc3ccccc3)O[C@@H](OCC)[C@@H]2CCCO)cc1	.	-4%	.	.	13%	0%	0%	.
CC(Oc1ccccc1)C(=O)Nc1nnc2n1CCS2 (stereo not drawn)	-0.3%	-1%	20%[46.1 µM]	3%	.	.	.	.
COCCNC(=O)c1ccc(N2CCCCC2)c(NS(=O)(=O)c2ccc(C)cc2)c1	1.0%	56%[activator]	-3%	?	3%	-11%	2%	3%
CCN(CC)C(=O)c1ccc(NC(=O)Cn2nc(C)c3ccccc3c2=O)cc1	-0.4%	8%	3%	0%	-14%	4%	-8%	5%
COc1ccc(CN(C)C(C)C(=O)Nc2ccc([N+](=O)[O-])cc2Cl)cc1OC (stereo not drawn)	-5.8%	?	?	-7%	.	-14%	3%	?
N=c1sccn1CC(=O)Nc1cc(S(=O)(=O)N2CCCCC2)ccc1Cl	.	-3%	-2%	.	0%	3%	1%	?
COc1ccc(S(=O)(=O)N2CCCC2C(=O)Nn2cnnc2)cc1 (stereo not drawn)	4.1%	6%	3%	0%	23%	3%	1%	7%
COc1ccc(OCCCc2c(C)n[nH]c2C)cc1	-3.2%	-17%	-4%	9%	-17%	-34%	16%	-11%
N#Cc1c(Nc2ccccc2)c(/C=N/N=C/c2ccccc2)c[nH]c1=O	-11%	?	-25%	-7%	-6%	22%	0%	1%
Cc1ccc(-c2cc(C#N)c(=O)n(Cc3c(Cl)cccc3Cl)c2)cc1	-2.1%	15%	3%	-1%	0%	3%	0%	-26%
Cc1cccc(C(=O)O/N=C(\N)Cc2ccc([N+](=O)[O-])cc2)c1	-4.0%	-25%	?	-5%	-9%	-199%	-19%	?
Nc1c(Cl)ncnc1NCCc1ccc(O)cc1	.	-25%	.	.	-4%	-1%	0%	.
COc1cc(/C=C(\C#N)c2nc3ccccc3[nH]2)cc(Br)c1OCc1ccccc1	-2.1%	?	?	?	-1%	-3%	-21%	?

The order is random; overall some 4.6% were active at least once.
